Assay outcomes as filed in PubChem BioAssay.
VDR inh: blocks the human vitamin D receptor; P11473; VDR-SRC2-3 peptide fluorescence polarization, 2 h; Potency, µM, for the others: max response, negative = inhibition, actives largely listed as inhibitors; 400,000 compounds, 0.93% hits; AID 504847; active = well fitted inhibition curve with a large enough effect; inconclusive = small, poorly fitted or top-dose-only effect, or another doubt; inactive = no such curve, though single readings can be large or run the other way; also: series mostly up to about 120 µM
Target sequence (P11473 whole entry, looked up): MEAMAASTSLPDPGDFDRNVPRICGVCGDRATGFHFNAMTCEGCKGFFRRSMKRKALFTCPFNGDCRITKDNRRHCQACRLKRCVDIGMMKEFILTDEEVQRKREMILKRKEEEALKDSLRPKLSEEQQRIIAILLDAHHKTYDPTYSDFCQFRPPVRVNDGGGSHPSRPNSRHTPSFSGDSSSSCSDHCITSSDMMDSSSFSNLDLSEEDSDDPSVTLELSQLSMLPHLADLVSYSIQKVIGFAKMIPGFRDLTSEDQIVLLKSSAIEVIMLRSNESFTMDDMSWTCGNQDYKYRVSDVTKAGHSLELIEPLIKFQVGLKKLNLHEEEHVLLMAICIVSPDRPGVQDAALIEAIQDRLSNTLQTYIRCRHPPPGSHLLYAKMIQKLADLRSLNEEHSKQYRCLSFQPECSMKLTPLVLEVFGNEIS
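Fluorescence polarization assay measuring small-molecule disruption of VDR binding to the coregulator peptide SRC2-3. Compounds were pin-transferred (23 nl) into the reagent mix and incubated 2 h at room temperature before reading.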
Active calls of the source: *; ? = inconclusive; & = joins results of further samples; [ ] = remark or other dose. % is scaled to controls: 0 for no effect and ±100 for the full control effect; potency is read from the fitted curve at half-maximal effect.

The first seven compounds (preview)
VDR inh	smiles
13.5%	CCCNC(=O)CCn1nc(-c2ccc(Cl)cc2)c2ccccc2c1=O
5.2%	CCc1cccc(NS(=O)(=O)c2c(C)nc3scc(C)n3c2=O)c1
-15.2%	CC(=O)Nc1ccc(N=NC2C(=O)N(C(N)=S)N=C2C)cc1 (stereo not given)
31.6µM*	CN(C)S(=O)(=O)c1cccc(-n2sc3ccccc3c2=O)c1
10.2%	COc1cccc2c(=O)c(C(=O)NCc3cccs3)c[nH]c12
-9.9%	O=C(O)c1cccc(-c2nc3ccccc3[nH]2)c1
-7.6%	COCCCNc1nc2c(S(=O)(=O)c3ccc(C)c(C)c3)nnn2c2ccc(Cl)cc12

Results, from the start:
VDR inh	smiles
13.5%	CCCNC(=O)CCn1nc(-c2ccc(Cl)cc2)c2ccccc2c1=O
5.2%	CCc1cccc(NS(=O)(=O)c2c(C)nc3scc(C)n3c2=O)c1
-15.2%	CC(=O)Nc1ccc(N=NC2C(=O)N(C(N)=S)N=C2C)cc1 (stereo not given)
31.6µM*	CN(C)S(=O)(=O)c1cccc(-n2sc3ccccc3c2=O)c1
10.2%	COc1cccc2c(=O)c(C(=O)NCc3cccs3)c[nH]c12
-9.9%	O=C(O)c1cccc(-c2nc3ccccc3[nH]2)c1
-7.6%	COCCCNc1nc2c(S(=O)(=O)c3ccc(C)c(C)c3)nnn2c2ccc(Cl)cc12
-8.5%	CC(O)[C@H]1CN=C(N)N1CC(C)(C)C (stereo not given in full)
-21.5%&11.9%	COC(=O)C(C)Sc1ccc2nnc(CCNS(=O)(=O)c3ccc(C)cc3)n2n1 (stereo not given)
1.7%	CCOC(=O)c1cc(-c2ccccc2)n(CC(=O)NC2CCC(C)CC2)c1C (stereo not given)
-13.9%	COc1cccc(N=C2NC(=O)/C(=C/c3cc([N+](=O)[O-])ccc3O)S2)c1
-1.5%	CCOC(=O)C(NCc1ccccc1)(NC(=O)c1ccccc1)C(F)(F)F (stereo not given)
7.2%	O=C(Nc1ccc(F)cc1F)c1ccc2c(c1)OCCO2
-10.4%	COc1ccc(-c2nnc(NC(=O)CSc3ccc(Cl)cc3)s2)cc1OC
33.2%[activator]	COC(=O)COc1ccccc1/C=C1/NC(=O)NC1=O
-11.0%	Cc1cccc(-c2nc(CN3CCN(Cc4cccc(F)c4)CC3)c(C)o2)c1
7.2%	O=C(/C=C/c1ccccc1)OCc1cncs1
19.9%	Cc1cc(Br)ccc1NC(=O)CN1C(=O)c2cccnc2Sc2ccccc21
-0.1%	COC(=O)C1=C2SC(C)C(=O)N2C(N)=C(C#N)C1c1cc(OC)c(OC)c(OC)c1 (stereo not given)
20.9%	CC(C)Oc1ccc(CN2CCCC(CO)(Cc3ccccc3)C2)cc1CO (stereo not given)
1.9%	Nc1nc(SCC(=O)Nc2ccccc2Sc2ccc(Cl)cc2)n[nH]1
8.0%	CC1(C)c2ccccc2N2CC(=O)N[C@@]21/C=C/C=C/c1ccccc1
-2.9%	COc1ccc(S(=O)(=O)n2ccc(C)n2)cc1C
1.8%	CCCCN(C(=O)CSc1nnc(-c2ccc(OC)cc2)n1C(C)C)c1c(N)n(Cc2ccccc2)c(=O)[nH]c1=O
13.1%	COc1ccc(OC)c(C(c2nnnn2CC2CCCO2)N2CCN(C3CCCC3)CC2)c1 (stereo not given)
-6.8%	COc1cc(CNc2ccc(CNc3ncn[nH]3)cc2)ccc1OCc1ccccc1
-9.9%	Cc1nc2ncnn2c(C)c1CCC(=O)NCc1cccc(Cl)c1
0.9%	O=C(NCC(c1ccco1)N1CCc2ccccc21)c1ccccc1Br (stereo not given)
-5.1%	O=C(CNC(=O)Cc1ccccc1)NCC(=O)OCC(=O)c1ccc(F)cc1
-1.6%	CCOc1ccc2nc(N3CCCC(C(=O)NCc4ccccc4Cl)C3)sc2c1 (stereo not given)
7.2%	COc1cc(CN2CCCC(CCC(=O)NCc3ccc(C)o3)C2)cc2c1OCO2 (stereo not given)
-25.4%	CCCCCCCN1CCN=C1Nc1ccccc1
-4.9%	Cc1ccc(C)c(NC(=O)CN(C)C(=O)c2nn(C)c(=O)c3ccccc23)c1
-3.2%	CS(=O)(=O)N1CCN(c2nc(-c3cccs3)nc3ccccc23)CC1
14.0%	CCCn1c(N)c(C(=O)CSc2nnc3ccccn23)c(=O)n(C)c1=O
-14.7%	CCCC(c1nnnn1C1CCCC1)N1CCN(C(=O)c2ccco2)CC1 (stereo not given)
8.0%	COC(=O)c1cc2c(cc1NC(=O)CSCCc1ccccn1)OCO2
16.7%	Nc1nc2ccc(C(=O)Nc3ccccc3)cc2s1
15.1%	CCc1nnc(NC(=O)CSc2nnc(-c3ccoc3C)n2-c2cccc(C)c2)s1
12.6%	Cc1ccc(S(=O)(=O)NC(=O)NCc2ccc(Cl)cc2)cc1
-9.9%	Cc1ccc(C2CC(=O)C(C=NCCN3CCN(C(=S)Nc4ccccc4)CC3)=C(O)C2)cc1 (stereo not given)
-10.6%	C=CCn1c(=O)c2c(nc3n2CCCN3CCc2ccc(OC)c(OC)c2)n(C)c1=O
-15.6%	O=Cc1c[nH]c2ccc(S(=O)(=O)N3CCOCC3)cc12
-5.8%	O=C(O)COc1ccc(/C=N/NC(=O)C2CCCN2S(=O)(=O)c2ccc(Cl)cc2)cc1 (stereo not given)
14.7%	CCOc1ccccc1NC(=O)c1ccc(S(=O)(=O)N2CCOCC2)cc1
-4.4%	COC1CCCCC1NS(=O)(=O)c1ccc(Cl)cc1 (stereo not given)
12.8%	CCc1ccc(N2CC(C(=O)N3CCN(c4ccccn4)CC3)CC2=O)cc1 (stereo not given)
-11.3%	COc1ccc(C=O)cc1COc1ccccc1F
7.7%	CCOc1ccccc1Nc1sc(C(=O)c2ccc(Cl)cc2)c(N)c1C(=O)NCCc1ccccc1
-7.8%	COc1cccc2[nH]c(C(=O)NCCc3ccccc3)cc12
-16.3%	COc1ccc(CNC(=O)COC(=O)CN2C(=O)C3CC=CCC3C2=O)cc1 (stereo not given)
-3.0%	Cc1cc(C)c(NC(=O)CNC(=O)COC(=O)CNC(=O)c2ccc(Cl)cc2Cl)c(C)c1
-3.3%	Cc1ccccc1C(=O)OCC(=O)Nc1cccc(S(=O)(=O)NC2=NCCC2)c1
-2.6%	COc1cccc(CN2CCNC(=O)C2CC(=O)N(C)C2CCOCC2)c1 (stereo not given)
-4.0%	COC(=O)C1CCN(c2cc(Cl)nc(N)n2)CC1
-5.3%	CCCCn1c(N)c(N(CCC(C)C)C(=O)CC2CCCCC2)c(=O)[nH]c1=O
-11.9%	CCCC(=O)C1=C(O)C(C(=O)OC)C(C)(C)CC1=NCCc1ccc(OC)c(OC)c1 (stereo not given)
4.4%	O=C(CCCN1C(=O)/C(=C/c2ccccc2Cl)SC1=S)NNC(=O)c1ccccc1
-4.9%	COC(=O)C1CCN(C(=O)COc2cc3sc(C)nc3c3sccc23)CC1
8.7%&-4.0%	CC(=O)N1CCCc2cc(S(=O)(=O)N3CCCC(C(=O)Nc4cccc(F)c4)C3)ccc21 (stereo not given)

4 entries from above, field by field.
COc1ccc(CNC(=O)COC(=O)CN2C(=O)C3CC=CCC3C2=O)cc1 (stereo not given)
  VDR inh: -16.3%
CCCCn1c(N)c(N(CCC(C)C)C(=O)CC2CCCCC2)c(=O)[nH]c1=O
  VDR inh: -5.3%
O=C(CCCN1C(=O)/C(=C/c2ccccc2Cl)SC1=S)NNC(=O)c1ccccc1
  VDR inh: 4.4%
COc1cccc2[nH]c(C(=O)NCCc3ccccc3)cc12
  VDR inh: -7.8%

(next part)
VDR inh	smiles
?	CC(=O)c1c(Cl)nc2ccc(Br)cc2c1-c1ccccc1
-0.7%	CC(=O)Nc1ccc2nc3c(=O)[nH]c(=O)[nH]c3nc2c1
11.2%	Cc1cccc(Nc2ncnc(N)n2)c1
2.3%	O=C(Cc1nc2ccccc2[nH]1)NCc1ccco1
9.3%	CN(C)C(=O)N1CCN(C(=O)N2CCOCC2)CC1
1.3%	CCOC(=O)c1ccc(NC(=O)CC2Sc3ncnn3C2=O)cc1 (stereo not given)
11.1%	O=C(NCN1CCN(CCO)CC1)c1cnccn1
-6.8%	Cc1ccc(NC(=O)CN2C(=O)C(=O)N(C3CCCC3)C2=O)c(Cl)c1
-1.8%	O=C(CCCn1ncn2c(cc3occc32)c1=O)N1CCc2ccccc2C1
4.9%	O=C(COc1ccccc1)Nc1ccc(Cl)c(-c2nc3ncccc3o2)c1
-0.7%	N#Cc1ccccc1NS(=O)(=O)c1cc2c3c(c1)CCC(=O)N3CCC2
10.3%	CC(C)COC(=O)c1ccc(N2C(=O)c3ccccc3C2=O)cc1
89.1µM*	Cc1ccc(-n2c(N)c(C(N)=O)sc2=S)c(C)c1
-16.4%	O=C(CN1C(=O)NC2(CCCC2)C1=O)NCc1ccc(Cl)cc1
-0.5%	CN(C(=O)CCS(=O)(=O)c1ccc2c(c1)oc(=O)n2C)C1CCCCC1
-9.3%	CC(C(=O)NCc1ccc(Cl)cc1)n1ccc2cc(S(=O)(=O)N3CCCC3)ccc21 (stereo not given)
-3.5%	O=C(CN1CCN(C(=O)c2ccccc2)CC1)NC(=O)NCCC1=CCCCC1
-6.0%	CCNC(=S)N(CCc1c(C)[nH]c2ccc(C)cc12)Cc1ccco1
-7.2%	CN1CCN2c3ccccc3Cc3ccccc3[C@@H]2C1
4.8%	COc1ccc(CNC(=O)CN2CCN(c3cccc(C)c3C)CC2)cc1
10.5%	O=S(=O)(c1ccc(Br)s1)N1CCN(c2ccnc3cc(Cl)ccc23)CC1
-9.5%	CC(C)n1cnc2cc(NC(=O)c3ccco3)ccc21
-17.0%	O=C(NCCN1CCCCC1)Nc1ccc([N+](=O)[O-])cc1
-21.5%	O=C(c1ccncc1)N1CCN(C(=O)c2ccco2)CC1
1.8%	CCOc1cccc(C(=O)Nc2ccc(-c3nc4ncccc4o3)cc2C)c1
27.8%	CCOc1ccc(NC(=O)c2c(NC(=O)CNCCN3CCOCC3)sc3c2CCC3)cc1
8.8%	CCOCC(=O)Nc1cccc(SC)c1
-13.4%	COC(=O)C1C/C(=N\NS(=O)(=O)c2ccc(C)cc2)c2ccsc2C1 (stereo not given)
0.7%	C=C1CCN([C@@H](C)C(=O)OCc2ccc(C)cc2)S(=O)(=O)c2ccccc21
-16.1%	COc1ccc(C(=O)Nc2ccccc2C(=O)NCc2ccco2)cc1
?	O=C(NCc1cccnc1)/C(=C/c1ccc(-c2cccc(Cl)c2)o1)S(=O)(=O)c1ccccc1
4.4%	O=C(N/N=C/c1ccncc1)c1cccc(S(=O)(=O)N2CCCC2)c1
-7.2%	C/C=N/NC(=O)CCCC(=O)N/N=C/C
2.6%	O=S(=O)(c1ccccc1F)N1CCN(c2nc(-c3cccs3)nc3ccccc23)CC1
9.0%	CC1CCN(c2ccc(S(=O)(=O)NC3=NCCCCC3)cc2[N+](=O)[O-])CC1
-9.0%	CC(C)c1ccc(/C=C2\SC(=O)N(CC(=O)NC3CCS(=O)(=O)C3)C2=O)cc1 (stereo not given)
-3.9%&4.6%	Cc1nc2c(-c3ccc(F)cc3)c(C)nn2c(C)c1CCC(=O)N1CCN(c2ccccc2)CC1
-7.6%	CCCNC(=O)NC(=O)CSc1ccc(C)cc1C
4.3%	COCC1CCN(C(=O)CCc2nnc(CCCCc3ccccc3)o2)CC1
-2.3%	COc1ccc(CNC(=O)CCCCCNC(=O)N2CCn3c2nc2ccccc23)cc1
4.3%	CCN(CC)C(=O)Cn1c(=O)n(CCC(=O)Nc2ccc(F)cc2)c(=O)c2sccc21
17.4%	CC(=O)c1sc(NC(C)c2ccccc2)nc1C (stereo not given)
8.8%	Cc1ccc(CSc2nc3ccc(NC(=O)CC(C)C)cc3s2)cc1
-25.0%	O=C(NCCc1ccc(Cl)cc1)C1CCN(c2cnccn2)CC1
-7.1%	Cn1cc(CC(=O)NCc2ccc(F)cc2)c2ccccc21
-4.9%	COc1ccc(C2/C=C\CC(NS(=O)(=O)c3ccc(C)cc3)CC(=O)N2Cc2ccccc2F)cc1 (stereo not given)
?	Clc1ccccc1-c1cc(NCCN2CCOCC2)ncn1
4.8%	Cc1cc(C)c2nc(C(F)(F)F)nc(N3CCN(C(=O)c4ccco4)CC3)c2c1
20.1%	O=C(COc1cc2oc(=O)c3c(c2cc1Cl)CCC3)NCC(O)c1ccccc1 (stereo not given)
-7.1%	CC(=O)c1c(O)cc(C)n(Cc2ccccc2)c1=O
-13.3%	Cc1ccccc1Cn1cc(NC(=O)c2cc(C3CC3)on2)cn1
-4.5%	Cc1c(N=Nc2c(-c3ccc([N+](=O)[O-])cc3)[nH]n(C(N)=S)c2=O)cccc1[N+](=O)[O-]
4.7%	Nc1ccccc1Nc1c(F)c(F)nc(F)c1Cl
0.5%	CCOC(=O)C(=O)C1(C(=O)OCC)Oc2cc(OC)cc(OC)c2C(=O)C1c1ccccc1 (stereo not given)
-14.6%	COc1ccc(-c2nnc(SCC(=O)Nc3cccnc3Cl)n2C)cc1
17.1%	CC(C)Oc1ccc(/C(O)=C2/C(=O)C(=O)N(CCN3CCNCC3)C2c2ccc(C(C)C)cc2)cc1 (stereo not given)
-20.9%	Cc1ccccc1C(=O)NCCCNC(=O)c1ccco1
11.7%	CCOC(=O)C1CCN(CC(=O)N2CCCc3c2c(=O)oc2ccc(OCc4ccccc4)cc32)CC1
-6.0%	O=C(COc1cccc2cccnc12)NCc1cccs1
-10.1%	O=C(N/N=C/c1ccccc1O)C1SCCCS1
-3.8%	O=C(Nc1cccc(O)c1)c1ccc(Br)c(S(=O)(=O)N2CCCCC2)c1
-12.8%	N#Cc1c(N)nc(SCC(=O)C23CC4CC(CC(C4)C2)C3)c(C#N)c1-c1ccc(Cl)cc1
-20.8%	COc1ccc(-n2c(CN3CCN(c4ccccn4)CC3)nc3ccc([N+](=O)[O-])cc3c2=O)c(OC)c1

The list is partial; count on the stated rates, not on these rows.
